# Rango dissoc inh – prevents RanGTP from dissociating the Rango-importin beta complex; O95149+P62826; Biochemical FRET Rango-importin beta, RanGTP-induced dissociation; Potency, µM (doses to about 46.1 µM), for the others: at the top dose activity change, negative = inhibition; hit rate 0.071% among 340,000; active means falling FRET ratio curve, often poorly fitted, with flat reads before Ran was added; inconclusive means other falling curves, or compound fluorescence or quenching; inactive means flat or rising ratio curve;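 note: potency is the fitted concentration of half-maximal effect; % of control where 0% means no effect; nearly all actives have a fitted effect of over 45% in size; -100% = wells without RanGTP and RCC1; the record marks most hits as doubtful in a second field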
#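 FRET read at 45 min, room temperature: inhibitors block the CFP/YFP signal rise when RanGTP (0.6 uM Ran, 2 mM GTP, 0.2 uM RCC1) frees Rango (0.1 uM) from importin beta (0.25 uM). Pre-read after 5 min compound exposure flags interference.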
# Rango complex inh – inhibitors of Rango-importin beta complex formation; Potency, µM (titrated, usually from 92.2 µM), inactives show at the top dose inhibition of complex formation; Q14974; Rango CFP/YFP FRET sensor + importin beta, 45 min; AID 540263; hit rate 0.031% among 340,000; active = rising FRET ratio curve, often small or poorly fitted; inconclusive = mostly compound fluorescence or quenching in the first reads; inactive = flat curves in all reads;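 note: potency is the fitted concentration of half-maximal effect; 0% = DMSO wells and 100% = buffer wells lacking importin beta; nearly all actives have a fitted effect of over 15% in size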
# Target sequence (Q14974 whole entry, looked up): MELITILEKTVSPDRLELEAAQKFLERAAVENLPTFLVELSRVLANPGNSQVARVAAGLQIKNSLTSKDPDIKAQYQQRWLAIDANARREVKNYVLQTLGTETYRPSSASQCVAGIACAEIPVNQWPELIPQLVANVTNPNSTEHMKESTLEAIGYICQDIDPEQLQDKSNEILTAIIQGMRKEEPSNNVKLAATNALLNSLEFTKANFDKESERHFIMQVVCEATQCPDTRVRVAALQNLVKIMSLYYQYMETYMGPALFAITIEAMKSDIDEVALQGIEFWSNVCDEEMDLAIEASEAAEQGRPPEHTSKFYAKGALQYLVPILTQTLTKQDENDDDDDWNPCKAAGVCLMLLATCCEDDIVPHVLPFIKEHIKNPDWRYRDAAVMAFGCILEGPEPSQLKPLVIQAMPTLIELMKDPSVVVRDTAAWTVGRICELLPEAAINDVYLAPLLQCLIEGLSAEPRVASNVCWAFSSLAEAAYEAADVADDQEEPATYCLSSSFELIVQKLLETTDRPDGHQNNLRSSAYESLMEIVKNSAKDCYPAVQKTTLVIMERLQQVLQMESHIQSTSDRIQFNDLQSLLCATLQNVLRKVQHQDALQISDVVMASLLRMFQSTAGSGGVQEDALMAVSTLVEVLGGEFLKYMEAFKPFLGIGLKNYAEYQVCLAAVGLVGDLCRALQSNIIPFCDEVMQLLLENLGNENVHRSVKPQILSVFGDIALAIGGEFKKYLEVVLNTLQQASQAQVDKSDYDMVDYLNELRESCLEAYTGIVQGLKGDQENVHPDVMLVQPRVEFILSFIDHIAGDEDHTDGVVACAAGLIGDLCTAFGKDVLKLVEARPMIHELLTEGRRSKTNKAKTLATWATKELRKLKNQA
#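 Inhibition scored from the CFP 486 nm/YFP 530 nm FRET ratio 45 min after adding 0.125 microM importin beta to 50 nM Rango biosensor preincubated 5 min with compound (room temperature, PBS with DTT, Tween-20, BSA). No-importin wells as positive control.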
# miR-21 FLuc – miR-21 reporter, rising signal; 340,000 tested, under 10 active; Potency, µM (titrated, usually from 38.3 µM), without a hit: top-dose reporter change, positive = more light; HeLa miR-21 FLuc reporter, luciferase, 48 h; active = well fitted rising curve with a large enough effect; inconclusive = small, poorly fitted or top-dose-only effect; inactive = no such curve, though single readings can be large or run the other way;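 note: % of control where 0% means no effect; miR-21 action dims this reporter so a rising signal means less miR-21 action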
#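 HeLa miR-21-FLuc reporter line, endogenous miR-21; 2000 cells/well in DMEM/10% FBS; compound titration up to ~40uM final, 48 h, 37 degree Celsius; luciferase detection reagent, 15 min lysis, CCD luminescence.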
# GLA inh pH 4.5 – blocks human alpha-galactosidase A at pH 4.5. P06280. purified enzyme, 4-MU-alpha-Gal fluorescence, pH 4.5. activity change, negative = inhibition, % at 105 µM. 230,000 tested, under 10 active. AID 1467; inconclusive = small, poorly fitted or top-dose-only inhibition, or a rising curve; inactive = flat fitted curve, though single readings scatter; no compound was filed as active;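 note: 0% = full activity with enzyme and -100% = basal without enzyme; dose as in the result columns while the protocol names 77 µM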
# Starred values were filed as active, the others as inactive; u = inconclusive; x = not tested or not shown; & = joins results of further samples. An excerpt; rates above refer to the full screens.
SMILES,Rango dissoc inh,Rango complex inh,miR-21 FLuc,GLA inh pH 4.5
CCCC(CCC)c1nnc(NC(=O)c2ccco2)s1,-5%,-0.2%,1%,x
CC(Oc1ccccc1)C(=O)N1CCCc2ccccc21 (stereo not given),-5%,u,-9%,6
C=CCOC(=O)COc1ccc2c(C)c(C)c(=O)oc2c1,4%,-0.1%,-1%,-1
O=C(Nc1ccc2c(c1)OCO2)C1CC(c2ccccc2Cl)=NO1 (stereo not given),-13%,4.5%,-56%,-1
O=C(COC(=O)CN1C(=O)COc2ccccc21)NC1CCCCC1,-27%,-1.5%,x,x
CC(=O)Nc1ccc(-c2cc(-c3ccccc3)nc(-c3ccccc3)n2)cc1,-8%,2.4%,-5%,6
CCCc1cc(=O)oc2c(C)c(OCC(=O)N3CCC(C(=O)O)CC3)ccc12,-4%,-0.8%,-6%,x
CCCCN(C(=O)C1CC1)C1CCS(=O)(=O)C1 (stereo not given),16%,-2.0%,x,x
Cc1ccc2c(C)c(C(=O)N(C)Cc3ccncn3)oc2c1C,9%,-2.7%,-7%,x
CC1CC(C)CN(c2ccc(S(=O)(=O)N3CCOCC3)cc2)C1 (stereo not given),6%,0.5%,-3%,x
O=C(O)c1cc(-c2cc(C(=O)O)c3ccccc3n2)ccc1O,-12%,4.7%,x,x
NNC(=O)CC(=O)NC1(Cc2ccc(O)cc2)CCCCC1,-17%,-2.3%,0%,1
Cc1cc(NS(=O)(=O)c2ccc(Nc3nc(-c4sc(C)nc4C)cs3)cc2)no1,x,x,-13%,4
O=C(COc1ccc(Cl)cc1[N+](=O)[O-])N1CCCCC1,-2%,1.3%,-22%,-8
CN(C)CCCO/N=C(\c1ccccc1)c1ccncc1,-6%,-2.0%,0%,3
Cn1c2ccccc2c2c(C(=O)N3CCN(c4ccc(F)cc4)CC3)cn(C3CCCC3)c(=O)c21,1%,1.5%,21%,-3
Cc1ccc(-n2ncc3c(=O)n(CC(=O)N4CCCCCC4)cnc32)cc1,5%,-3.6%,-6%,6
N=c1c(C(=O)NCc2ccccc2)cc2c(=O)n3ccccc3nc2n1Cc1ccco1,u,u,15%,1
CCOC(=O)NC(=O)/C(C#N)=C\Nc1ccc(Cl)cc1Cl,5%,u,-53%,1
NS(=O)(=O)c1ccc(CCNC(=O)CCCCCn2c(=S)[nH]c3ccc(Br)cc3c2=O)cc1,2%,-0.4%,-11%,-3
CN(C)S(=O)(=O)N(CC(=O)NCCSCc1ccccc1)c1ccccc1,-18%,1.8%,-1%&-7%,-1
CCc1ccc(NC(=O)CSC2=C(C#N)C(c3ccc4c(c3)OCO4)CC(=O)N2)cc1 (stereo not given),17%,-1.5%,x,x
C/C=C/CSc1nc2c(c(=O)[nH]c(=O)n2C)n1CCC,1%,2.2%,-28%,3
Cc1cccc(C)c1N(CC(=O)NC1CCCCC1)C(=O)c1csnn1,-4%,0.0%,2%,x

# Shown as tab-separated lines: entries from further up
structure	Rango dissoc inh	Rango complex inh	miR-21 FLuc	GLA inh pH 4.5
CCCC(CCC)c1nnc(NC(=O)c2ccco2)s1	-5%	-0.2%	1%	x
CC(Oc1ccccc1)C(=O)N1CCCc2ccccc21 (stereo not given)	-5%	u	-9%	6
C=CCOC(=O)COc1ccc2c(C)c(C)c(=O)oc2c1	4%	-0.1%	-1%	-1
O=C(Nc1ccc2c(c1)OCO2)C1CC(c2ccccc2Cl)=NO1 (stereo not given)	-13%	4.5%	-56%	-1
O=C(COC(=O)CN1C(=O)COc2ccccc21)NC1CCCCC1	-27%	-1.5%	x	x
CC(=O)Nc1ccc(-c2cc(-c3ccccc3)nc(-c3ccccc3)n2)cc1	-8%	2.4%	-5%	6
CCCc1cc(=O)oc2c(C)c(OCC(=O)N3CCC(C(=O)O)CC3)ccc12	-4%	-0.8%	-6%	x
CCCCN(C(=O)C1CC1)C1CCS(=O)(=O)C1 (stereo not given)	16%	-2.0%	x	x
Cc1ccc2c(C)c(C(=O)N(C)Cc3ccncn3)oc2c1C	9%	-2.7%	-7%	x
CC1CC(C)CN(c2ccc(S(=O)(=O)N3CCOCC3)cc2)C1 (stereo not given)	6%	0.5%	-3%	x
O=C(O)c1cc(-c2cc(C(=O)O)c3ccccc3n2)ccc1O	-12%	4.7%	x	x
NNC(=O)CC(=O)NC1(Cc2ccc(O)cc2)CCCCC1	-17%	-2.3%	0%	1
Cc1cc(NS(=O)(=O)c2ccc(Nc3nc(-c4sc(C)nc4C)cs3)cc2)no1	x	x	-13%	4
O=C(COc1ccc(Cl)cc1[N+](=O)[O-])N1CCCCC1	-2%	1.3%	-22%	-8
CN(C)CCCO/N=C(\c1ccccc1)c1ccncc1	-6%	-2.0%	0%	3
Cn1c2ccccc2c2c(C(=O)N3CCN(c4ccc(F)cc4)CC3)cn(C3CCCC3)c(=O)c21	1%	1.5%	21%	-3
Cc1ccc(-n2ncc3c(=O)n(CC(=O)N4CCCCCC4)cnc32)cc1	5%	-3.6%	-6%	6
N=c1c(C(=O)NCc2ccccc2)cc2c(=O)n3ccccc3nc2n1Cc1ccco1	u	u	15%	1
CCOC(=O)NC(=O)/C(C#N)=C\Nc1ccc(Cl)cc1Cl	5%	u	-53%	1
NS(=O)(=O)c1ccc(CCNC(=O)CCCCCn2c(=S)[nH]c3ccc(Br)cc3c2=O)cc1	2%	-0.4%	-11%	-3
CN(C)S(=O)(=O)N(CC(=O)NCCSCc1ccccc1)c1ccccc1	-18%	1.8%	-1%&-7%	-1

# The results go on:
SMILES,Rango dissoc inh,Rango complex inh,miR-21 FLuc,GLA inh pH 4.5
COC(=O)c1ccc2c(=O)n(Cc3ccc(C(=O)NC(C)C)cc3)c(=S)[nH]c2c1,-6%,-1.9%,-7%,-2
CCOc1cc(S(=O)(=O)NC2CC2)c(OCC)cc1-n1cnnn1,-5%,0.0%,-10%,6
CCC(=O)N(Cc1ccc(S(N)(=O)=O)cc1)C1CC(=O)N(c2ccccc2)C1=O (stereo not given),-10%,-0.2%,1%,6
CC(C)(O)/C=C1/Oc2ccccc2C1N1CCCCC1 (stereo not given),2%,-1.1%,-1%,8
COCCCn1c(SCC(=O)O)nc2cc(OC)c(OC)cc2c1=N,-10%,-3.2%,1%,5
CCn1c(=O)c(=O)[nH]c2c(=O)oc3ccc(S(=O)(=O)Nc4ccccc4)cc3c21,6%,-1.1%,1%,x
O=C(O)/C(=C1\OC(=O)c2ccccc21)c1ccccc1,-4%,1.2%,-4%,2
CC(=O)Nc1sc2c(c1C#N)CCN(Cc1ccccc1)C2,u,u,-13%,x
CCc1ccccc1NC(=O)c1cccc(NC(=O)/C=C/c2ccco2)c1,3%,0.8%,1%,-1
CCn1c(SC(C)C(=O)NC2CCCc3ccccc32)nnc1-c1cccs1 (stereo not given),-9%,2.2%,0%,0
COc1cc(NC(=O)CSc2nc3ccccc3n2-c2ccccc2)c(C)cc1[N+](=O)[O-],9%,0.6%,-15%,2
CCCCN1CC(COCc2ccccc2)Oc2cccc(OCCN3C(=O)[C@@H]4[C@H](C3=O)C3C=C[C@H]4C3)c2S1(=O)=O (stereo not given in full),-2%,-1.4%,x,x
COc1ccc(CCC(=O)OCC(=O)N(CC(C)C)c2c(N)n(Cc3ccccc3)c(=O)[nH]c2=O)cc1,7%,-2.3%,x,x
COc1ccccc1N1CCN(C(=O)CSc2nc(-c3ccco3)cc(C(F)(F)F)n2)CC1,-5%,-3.7%,3%,-14
COc1cc(C2=NOC(C(=O)N3CCCc4ccccc43)C2)cc(OC)c1OC (stereo not given),-7%,-0.1%,0%,1
CCCCN(C)C(=O)c1c[nH]c2ccc(S(=O)(=O)N3CCOCC3)cc2c1=O,6%,3.4%,-13%,2
CC1CCC(C(=O)NNC(=O)c2cc(-c3ccco3)[nH]n2)CC1 (stereo not given),19%,-0.5%,0%,6
COc1ccc(F)cc1C(=O)C1CCCN(C(=O)c2ccccc2N(C)C)C1 (stereo not given),25%,u,13%,x
COc1ccc(CCN2CC(C(=O)OCc3ccccc3Cl)CC2=O)cc1OC (stereo not given),18%,3.5%,x,x
CCc1noc(C)c1C(=O)OCC(=O)Nc1ccc(F)cc1Cl,2%,0.5%,x,x
N=c1sccn1CC(=O)Nc1cccc2ccccc12,-11%,0.3%,0%,4
Cc1ccc(Oc2nc3ccccn3c(=O)c2/C=C(\C#N)C(=O)NC2CCS(=O)(=O)C2)cc1 (stereo not given),u,u,10%,5
O=C(CCCN1C(=O)c2ccccc2C1=O)NCc1ccc(F)cc1,-7%,-2.3%,3%,x
CCOC(=O)N1CCN(c2ccc(Cl)cc2)CC1,11%,-0.7%,-6%,-7
O=S(=O)(Cc1ccccc1)N1CCNCC1,-12%,u,0%,x
Cc1cc(C)c(C#N)c(N2CCCC2)n1,12%,-1.3%,-9%,5
CCN(CC(=O)Nc1ccc(NC(C)=O)cc1)C(=O)c1ccc2c(c1)OCCO2,6%,1.8%,x,x
COc1cc(NC(=O)CCc2nnc3ccc(N4CCN(C)CC4)nn23)cc(OC)c1,6%,-3.7%,-4%,x
COc1cccc2c1OC1(CCN(C(C)C)CC1)N1N=C(c3cccnc3)CC21 (stereo not given),-5%,-2.7%,-40%,1
O=C(Nc1cc(Cl)ccc1Oc1ccccc1)c1ccccc1F,1%,0.7%,-1%,3
COc1cc(S(=O)(=O)n2cnc(C)c2)ccc1Cl,8%,0.3%,-7%,-17
COc1ccc(C(=O)C[n+]2cccc(C(N)=O)c2)cc1,-13%,2.8%,-4%,x
Clc1ccc(Nc2nc3ccccc3n3nnnc23)cc1,1%,-0.5%,-6%,6
Cc1cc(NC(=O)CCC(=O)N(CCc2ccccc2)C(C(=O)NC2CCCC2)c2ccco2)no1 (stereo not given),11%,-2.4%,4%,-11
Cc1ccccc1NC(=O)C1c2ccccc2Oc2ccccc21,9%,0.0%,-4%,1
CCCC(=O)Nc1nnc(SCC(=O)Nc2ccc3c(c2)OCCO3)s1,-4%,1.4%,2%,8
Cc1ccc(OCC(=O)N2CCN(S(=O)(=O)c3ccccc3[N+](=O)[O-])CC2)cc1,-9%,-2.8%,-1%,-14
Oc1[nH]c2ccccc2c1/C=N/N1CCCCC1,-22%,-1.0%,-15%,5
Cc1ccc(S(=O)(=O)NCc2ccc(C(=O)NC3CCC(O)CC3)cc2)cc1C (stereo not given),5%,-0.1%,x,x
CC(=O)N/C(=C\c1ccc(F)cc1)C(=O)OCc1ccccc1,-5%,-1.7%,0%,x
COc1ccc(NC2C=CS(=O)(=O)C2)cc1 (stereo not given),u,u,0%,12
CCn1c(=O)c(-c2nc3ccccc3[nH]2)c(O)c2ccccc21,8%,-0.3%,-4%,15
CNC(=O)c1[nH]cnc1C(=O)Nc1ccc(F)cc1,2%,-0.6%,-1%,x
O=C(/C=C/c1c[nH]c2ccccc12)c1cccc2ccccc12,u,u,2%,x
C=CCNCCOc1c(C)cc(C)cc1Cl,-10%,2.2%,-12%,-5
CCC(C)(C)NC(=O)CN(Cc1cccs1)C(=O)C(=O)Nc1ccc2c(c1)OCCO2,-1%,2.0%,1%,-8
Cc1ccc(N2C(=O)CC(C3CCCO3)C2=O)cc1 (stereo not given),5%,-4.4%,1%,4
CCN(C(=O)CN1CCN(Cc2ccccc2)CC1)c1c(N)n(Cc2ccccc2)c(=O)[nH]c1=O,8%,2.8%,0%,11
CC(OC(=O)c1ccc(-c2ccc(O)cc2)cc1)C(=O)NC1CCCCC1C (stereo not given),-2%,0.4%,x,x

# Bioassay records (PubChem BioAssay)
